Ecoli rRNA inh = inhibitors of bacterial rRNA selective over humanized ribosomes. AID 720706. E. coli WT GFP vs humanized-ribosome RFP mutants, fluorescence, 24 h; active compounds read low; DMSO median 0, no signal -100. actives 1.6% (n = 350,000). GFP signal change (wild-type ribosome), % (no concentration beside the values);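 active means significant combined selectivity score with lowered wild-type GFP, culture density cut under 30%, mutant RFP and density less affected; inactive means any of these conditions unmet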; further: one replicate is shown; some compounds called inactive have numbers as strong as hits
MLL AF4-AF9 inh = blocks AF4 peptide binding to human AF9. P42568. AID 651704. inhibition, % at 10 µM. AlphaScreen, biotin-AF4 peptide binding to FLAG-AF9. actives 0.47% (n = 350,000);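 active means every replicate reaching a set inhibition limit, whatever the replicate mean, cut at about 25% in these data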;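 further: 0% = plate neutral control median and 100% = total signal loss; the record names both 10 and 1 µM as test concentration; the first replicate is given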
Target sequence (P42568 whole entry, looked up): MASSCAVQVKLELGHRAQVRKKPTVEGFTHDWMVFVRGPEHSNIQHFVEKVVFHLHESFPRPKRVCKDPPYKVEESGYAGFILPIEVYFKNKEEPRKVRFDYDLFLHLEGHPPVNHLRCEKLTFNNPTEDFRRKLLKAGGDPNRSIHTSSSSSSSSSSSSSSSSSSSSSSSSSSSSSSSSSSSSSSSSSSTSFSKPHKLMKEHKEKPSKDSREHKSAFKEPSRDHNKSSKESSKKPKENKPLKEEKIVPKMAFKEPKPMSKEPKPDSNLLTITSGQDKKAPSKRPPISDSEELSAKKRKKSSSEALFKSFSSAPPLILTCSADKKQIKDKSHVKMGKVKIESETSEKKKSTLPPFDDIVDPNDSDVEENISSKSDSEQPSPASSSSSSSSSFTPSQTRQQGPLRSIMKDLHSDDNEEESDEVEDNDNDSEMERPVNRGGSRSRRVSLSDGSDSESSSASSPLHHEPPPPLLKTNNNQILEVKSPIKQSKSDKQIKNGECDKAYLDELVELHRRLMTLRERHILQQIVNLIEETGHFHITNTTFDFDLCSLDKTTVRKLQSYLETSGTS
FGF22 binding = binders of recombinant human FGF22 by thermal shift. Q9HCT0. calls only at 9.99 µM. SYPRO orange fluorescence; percent of sucrose octasulfate shift, DMSO zero. AID 651658. actives 1.5% (n = 340,000);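 active means melting point raised past a set limit in the mean and every replicate; three in four hits are not shown here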
Target sequence (Q9HCT0 whole entry, looked up): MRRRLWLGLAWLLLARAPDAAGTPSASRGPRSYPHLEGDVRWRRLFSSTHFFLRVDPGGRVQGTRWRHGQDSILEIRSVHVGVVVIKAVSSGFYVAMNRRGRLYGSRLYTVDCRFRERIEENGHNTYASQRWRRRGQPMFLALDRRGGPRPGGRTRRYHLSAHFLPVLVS
Ecoli rRNA inh OD600 = also measured in Ecoli rRNA inh; calls as there; OD600 change, %; measured here: OD600 growth;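 optical density of the mix in the first replicate; 0 = DMSO median and -100 = no signal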
Ecoli rRNA inh RFP = also measured in Ecoli rRNA inh; calls as there; RFP signal change, %; measured here: RFP humanized mutant strains;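 first replicate; 0 = DMSO median and -100 = no signal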
* marks the source's active call; other numbers are inactive results; i = inactive; x = not tested or not shown; + = active, no number; & = joins results of further samples; ! = repeats disagree. These rows are one share of the data, so the mix of outcomes need not match the whole.

Results follow in this order: Ecoli rRNA inh	Ecoli rRNA inh OD600	Ecoli rRNA inh RFP	MLL AF4-AF9 inh	FGF22 binding
- CC1(C(=O)Nc2ccc3c(c2)OCCO3)CN(S(C)(=O)=O)CC(=O)N1CCc1ccccc1 (stereo not given)
  1	1	0.5	-1.2	i
- C[C@H](CO)N1C[C@H](C)[C@H](CN(C)Cc2ccc3c(c2)OCO3)Oc2ncc(C#Cc3ccccc3)cc2C1=O
  -26	-62	33	14	i
- COCCN1C[C@@H](CO)O[C@@H](n2cnc3c(N4CCN(CCO)CC4)ncnc32)C1
  12	6	2.1	-0.4	i
- CCCC(C)(C)C(=O)N1CCC1(C)C(=O)NS(=O)(=O)c1ccccc1Cl (stereo not given)
  12	20	2.7	-0.9	i
- CCOc1ccc(CCN2C(=S)N([C@@H](CC(C)C)CN3CCC[C@@H]3CN3C(=S)NC[C@@H]3Cc3ccc(O)cc3)C[C@@H]2Cc2ccc(O)cc2)cc1
  6	0	20	1.2	i
- CCCNC(=O)c1cc(C2CCCN(S(=O)(=O)c3cccc4cccnc34)C2)on1 (stereo not given)
  -15*	-4.9*	0.6*	-4.6	i
- Cc1ccc(S(=O)(=O)N(C)C[C@@H]2OCCCC[C@@H](C)Oc3ccc(NS(=O)(=O)c4cccs4)cc3C(=O)N([C@H](C)CO)C[C@@H]2C)cc1
  0	2	-1.9	6.0	i
- C[C@@H](NC(=O)[C@@H]1[C@@H](CO)[C@@H]2Cn3c(cccc3=O)[C@H]1N2C(=O)C1CC1)c1ccccc1
  2	4	-2.6	-0.5	i
- COc1cccc(-c2oc3c(c2-c2ccc(Br)nc2)C(O)CCC3)c1 (stereo not given)
  0	-2	1.8	4.5	i
- Cc1noc(C)c1S(=O)(=O)N(C)C[C@H]1OCc2cnnn2CCCC(=O)N([C@H](C)CO)C[C@H]1C
  6&1	13&3	-0.2&1.6	-1.2&-0.6	i
- CCNC(=O)C[C@@H]1CC[C@@H](NC(=O)NC2CCCCC2)[C@H](CO)O1
  -4	2	-2.4	-12	i
- COCC(=O)N1CCC2(CC1)CN(C(=O)CN1CCOCC1)[C@@H](CO)c1c2c2ccc(OC)cc2n1C
  1	7	-4.0	-16	i
- CO[C@H]1CN(C)C(=O)c2ccc(NC(C)=O)cc2OC[C@H](C)NC[C@@H]1C
  0	2	-1.8	-2.3	i
- C[C@@H]1CN([C@H](C)CO)S(=O)(=O)c2ccc(C#Cc3ccccc3)cc2O[C@H]1CN(C)C(=O)Nc1ccccc1
  1	0	1.7	-0.5	i
- CS(=O)(=O)N1CC(=O)N2[C@H](CO)[C@@H](c3ccc(Br)cc3)[C@@H]2C1
  2	6	-3.6	-2.4	i
- CC(C)CNC(=O)C1(C)CCCN1C(=O)c1ccc2c(c1)CCO2 (stereo not given)
  6	13	0.3	-0.9	i
- CC1CCC2(CC1)NC(=O)N(CC(=O)Nc1ccc(N3CCCCC3)cc1)C2=O (stereo not given)
  5	16	13	11	i
- Cc1ccc(S(=O)(=O)Nc2ccc3ccccc3c2[N+](=O)[O-])cc1
  -71	-78	-30	-1.1	i
- CCN1[C@@H]2c3ccc(-c4ccccc4OC)c(=O)n3C[C@H]1[C@H](CO)[C@H]2C(=O)NCc1ccccn1
  1	10	1.1	0.7	i
- C[C@@H]1CN([C@H](C)CO)C(=O)CCCn2nncc2CO[C@@H]1CN(C)C(=O)Nc1ccccc1F
  1	-5	-0.9	-0.8	i
- C[C@@H]1CCCCO[C@H](CN(C)C(=O)Nc2ccc(C(F)(F)F)cc2)[C@@H](C)CN([C@H](C)CO)C(=O)c2cc(NC(=O)Nc3ccc(C(F)(F)F)cc3)ccc2O1
  3	3	-3.3	-11	+
- CCCC(=O)Nc1ccc2c(c1)C(=O)N(C)C[C@H](OC)[C@@H](C)CN(C(=O)c1ccccc1F)[C@@H](C)CO2
  2	2	-2.6	0.7	i
- C[C@H](NC(=O)[C@H]1[C@H](CO)[C@H]2Cn3c(cccc3=O)[C@@H]1N2C(=O)C1CCCC1)c1ccccc1
  -1	0	-2.6	-1.6	i
- CCC(=O)N1C[C@H](O)COC[C@@H]2O[C@@H](CC(=O)N3CCCCC3)CC[C@H]21
  1	3	0.8	-2.7	i
- C[C@@H]1CN([C@H](C)CO)C(=O)c2cc(NC(=O)Nc3cccc4ccccc34)ccc2O[C@H]1CN(C)C(=O)Nc1ccc(F)cc1
  -2	0	-0.1	-1.0	i
- O=C1NC[C@@H](CCCCN2CCN(CC3CCCCC3)C(=O)C2=O)N(Cc2ccccc2)C1=O
  9	13	2.2	1.8	i
- C[C@H]1CCCCO[C@@H](CN(C)Cc2ccncc2)[C@@H](C)CN([C@@H](C)CO)C(=O)c2cc(NC(=O)Nc3cccc4ccccc34)ccc2O1
  -5	1	8.2	-0.7	i
- O=C(Nc1ccccc1)N1CCCCN2[C@H](C1)[C@H](c1ccc(-c3ccccc3F)cc1)[C@@H]2CO
  -12	-50	12	-0.2	i
- O=C(N[C@H]1CC[C@H](CCn2cc(-c3ccccn3)nn2)O[C@H]1CO)c1cccnc1
  0	3	-1.1	0.5	i
- C[C@@H]1CCCCO[C@H](CN(C)C(=O)c2ccccc2)[C@@H](C)CN([C@H](C)CO)C(=O)c2cc(N(C)C)ccc2O1
  1	1	-1.2	-0.6	i
- CCCN1C[C@H](C)[C@@H](OC)CN(C)C(=O)c2ccc(NS(C)(=O)=O)cc2OC[C@H]1C
  0	-2	-1.3	-2.6	i
- CCC(=O)N1CC2(C1)CN(Cc1ccc(Cl)cc1)[C@H](CO)c1[nH]c3cc(OC)ccc3c12
  -6	-12	-0.8	1.2	i
- CC=Cc1ccc2n(c1=O)C[C@@H]1[C@@H](CO)[C@H](C(=O)NCCC)[C@H]2N1Cc1nccs1 (mixture of isomers)
  4	5	-3.4	-0.7	i
- Cc1ccc(/C=C/C(=O)OCC(=O)NCc2ccccc2)o1
  3	10	0.3	-1.2	i
- O=C(Nc1ccc(F)cc1)N[C@H]1CC[C@@H](CCNS(=O)(=O)c2cccc(Cl)c2)O[C@H]1CO
  1	-17	1.2	3.0	i
- CNC[C@@H]1Oc2c(NS(=O)(=O)c3ccccc3)cccc2C(=O)N([C@H](C)CO)C[C@H]1C
  1	8	3.0	-2.9	i
- COc1ccccc1S(=O)(=O)N1C[C@H](O)COC[C@@H]2O[C@@H](CC(=O)O)CC[C@H]21
  4	-2	-3.2	-12	i
- CO[C@@H]1CN(C)C(=O)c2cc(NC(=O)NC(C)C)ccc2OC[C@@H](C)N(Cc2ccc(-c3ccccn3)cc2)C[C@H]1C
  -2	-2	5.4	1.2	i
- CCCCCCn1cc(CN2CC(N3CCSCC3)CS2(=O)=O)nn1 (stereo not given)
  4	9	-4.6	-0.7	i
- COc1ccc(NC(=O)N(C)C[C@H]2Oc3ccc(NC(=O)Cn4cnnn4)cc3C(=O)N([C@@H](C)CO)C[C@@H]2C)cc1
  2	2	-1.2	-1.0	i
- COc1ccccc1NC(=O)N[C@@H]1CC[C@H](CCNS(=O)(=O)c2ccc(Cl)cc2)O[C@H]1CO
  -2	-2	2.0	-0.5	i
- O=S(=O)(c1ccccc1)N1CCCCN2[C@@H](CO)[C@@H](c3ccc(C#CC4CCCC4)cc3)[C@@H]2C1
  -53	-76	-8.6	4.1	i
- O=c1ccn2c(n1)OC1CC2OC1COC(c1ccccc1)(c1ccccc1)c1ccccc1 (stereo not given)
  -22	-67	9.0	0.5	i
- COc1ccc(S(=O)(=O)N[C@@H]2CC[C@@H](CCNC(=O)c3ccccc3F)O[C@@H]2CO)cc1
  -2	0	-0.6	-1.2	i
- COc1ccc2c3c(n(C)c2c1)[C@H](CO)N(Cc1ccccc1)CC31CCN(S(C)(=O)=O)CC1
  1	-10	2.8	-1.0	i
- CC(C)N1CCC1(C)C(=O)Nc1ccc(-n2cccc2)cc1 (stereo not given)
  9	19	-0.4	10	i
- CCCNC(=O)C[C@@H]1CC[C@H]2[C@@H](COC[C@H](O)CN2C(=O)Nc2ccc(Cl)c(Cl)c2)O1
  -55	-71	-16	-0.4	i
- CCCC(=O)Nc1ccc2c(c1)C(=O)N(C)C[C@@H](OC)[C@H](C)CN(Cc1ccccc1F)[C@H](C)CO2
  -6	-12	1.9	6.9	i
- COc1ccc2c3c([nH]c2c1)[C@H](CO)N(C(=O)CN1CCOCC1)CC31CN(CC2CCCC2)C1
  2	-4	-1.0	5.3	i
- C[C@@H]1CN([C@@H](C)CO)C(=O)c2cccc(NC(=O)Nc3ccc(F)cc3)c2O[C@@H]1CN(C)Cc1ccc(-c2ccccc2)cc1
  -6	-10	1.4	4.9	i
- C[C@@H]1CN([C@@H](C)CO)C(=O)c2cc(C3=CCCC3)cnc2O[C@H]1CN(C)Cc1ccccc1
  5	5	2.6	5.7	i
- O=C(NCC[C@@H]1CC[C@@H](NS(=O)(=O)c2ccccc2)[C@@H](CO)O1)c1cc(Cl)cc(Cl)c1
  -16*!	-27*!	8.2*!	0.9&-2.1	i
- Cc1ccc(S(=O)(=O)N2CCCc3nc(-c4ccc(Br)cc4)ccc32)cc1
  16	20	4.2	-3.3	x
- CN(C)c1ccc(S(=O)(=O)N2CCCCC2)cc1NC(=O)CCNC(=O)c1ccccc1Cl
  2	13	-1.9	-0.8	i
- CC(C)NC(=O)Nc1ccc2c(c1)C(=O)N(C)[C@@H]1CC[C@H](CC(=O)NCC3CCCCC3)O[C@@H]1CO2
  0	-6	0.6	-0.7	i
- OC(c1cc(F)cc(Cl)c1)c1ncc(-c2cccc(C(F)(F)F)c2)[nH]1 (stereo not given)
  -53	-79	-15	9.9	i
- O=C(C[C@H]1CC[C@H]2[C@@H](COC[C@@H](O)CN2CC2CC2)O1)NCc1ccc(Cl)cc1
  -1	0	-4.2	-1.4	i
- CN(C)CC(=O)N[C@H]1CC[C@@H](CCn2cc(C3CCCC3)nn2)O[C@H]1CO
  3	5	0.4	-2.1	i
- COc1ccc(CCNC(=O)C2COc3ccccc3O2)cc1OC (stereo not given)
  2	-4	6.3	-9.2	i
- CC1(C)OC(=O)C2=C(C[C@@H](C3CCCC3)O[C@H]2CCc2cccc(Cl)c2)O1
  14	8	6.3	-4.9	i
- CNC[C@@H]1Oc2ccc(NC(=O)CCN3CCOCC3)cc2C(=O)N([C@@H](C)CO)C[C@@H]1C
  1	-6	2.5	-1.2	i

A stretch from the list above, for reference:
Results follow in this order: Ecoli rRNA inh	Ecoli rRNA inh OD600	Ecoli rRNA inh RFP	MLL AF4-AF9 inh	FGF22 binding
- CC1(C(=O)Nc2ccc3c(c2)OCCO3)CN(S(C)(=O)=O)CC(=O)N1CCc1ccccc1 (stereo not given)
  1	1	0.5	-1.2	i
- C[C@H](CO)N1C[C@H](C)[C@H](CN(C)Cc2ccc3c(c2)OCO3)Oc2ncc(C#Cc3ccccc3)cc2C1=O
  -26	-62	33	14	i
- COCCN1C[C@@H](CO)O[C@@H](n2cnc3c(N4CCN(CCO)CC4)ncnc32)C1
  12	6	2.1	-0.4	i
- CCCC(C)(C)C(=O)N1CCC1(C)C(=O)NS(=O)(=O)c1ccccc1Cl (stereo not given)
  12	20	2.7	-0.9	i
- CCOc1ccc(CCN2C(=S)N([C@@H](CC(C)C)CN3CCC[C@@H]3CN3C(=S)NC[C@@H]3Cc3ccc(O)cc3)C[C@@H]2Cc2ccc(O)cc2)cc1
  6	0	20	1.2	i
- CCCNC(=O)c1cc(C2CCCN(S(=O)(=O)c3cccc4cccnc34)C2)on1 (stereo not given)
  -15*	-4.9*	0.6*	-4.6	i
- Cc1ccc(S(=O)(=O)N(C)C[C@@H]2OCCCC[C@@H](C)Oc3ccc(NS(=O)(=O)c4cccs4)cc3C(=O)N([C@H](C)CO)C[C@@H]2C)cc1
  0	2	-1.9	6.0	i
- C[C@@H](NC(=O)[C@@H]1[C@@H](CO)[C@@H]2Cn3c(cccc3=O)[C@H]1N2C(=O)C1CC1)c1ccccc1
  2	4	-2.6	-0.5	i
- COc1cccc(-c2oc3c(c2-c2ccc(Br)nc2)C(O)CCC3)c1 (stereo not given)
  0	-2	1.8	4.5	i

Screening data from PubChem BioAssay.
